# eIF4H FP inh: inhibitors of RNA binding by human eIF4H; Q15056; eIF4H fluorescence polarization binding assay; inhibition, % at 35 µM; actives 0.94% (n = 290,000); AID 2012;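 active = 50% or more with normal probe brightness, or confirmed in later tests; about a fifth of its hits are not listed in these tables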;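 note: calls also rest on retests at 20 µM and on dose response follow-up; 0% = protein and probe with vehicle and 100% = probe without protein; strong numbers were not always called active; many hits fall short of the cut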
# MT1-MMP act inh: inhibitors of human MT1-MMP activation. P50281. HT1080 RFP-PRO-GFP cells, GFP/RFP ratio fluorescence, overnight; percent of plate control window, DMSO zero. GFP/RFP ratio change, % at 20 µM. actives 0.061% (n = 360,000). AID 651647;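 active = GFP/RFP ratio change of at least 30% with cell ATP level not reduced by more than half and red fluorescence within 50% of control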; note: strong numbers were not always called active
#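 Material: RFP-PRO-GFP reporter HT1080 cells. Dosing: single-point 20 µM compound, 1% DMSO. Controls: DMSO and RFP-L50D-GFP cell wells. Timing: cells overnight before dosing, compound overnight, 37 °C, 5% CO2. Measure: GFP/RFP fluorescence ratio.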
# Env fusion inh: HIV envelope-mediated fusion inhibition | HeLa-JRFL Env/CEM21 cell fusion, luciferase | inhibition, % at 12.3 µM | actives 1.1% (n = 360,000);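 active = mean replicate inhibition score of at least 50 and every replicate individually at or above 50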;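 note: 0% = plate neutral controls and 100% = maraviroc near 300 nM; one replicate is shown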
# CSC inhib: cancer stem cell inhibition | cancer stem cell-like cells viability, luminescence | inhibition, % at 7.5 µM | actives 1.1% (n = 300,000);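 active = mean at 75% or more and at least half the replicates too; tested in HMLE shEcad cells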;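 note: 0% = median of negative and 100% = median of positive control wells; the first replicate is given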
# Rce1 inhib: blocks yeast Ras-converting enzyme; yeast membranes, quenched prenylated peptide cleavage fluorescence; calls only; actives 0.27% (n = 290,000); AID 2563;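 active = fall in fluorescence gain of 50% or more versus controls, with final raw signal at or below 3038400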;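 note: plate controls were neutral control wells for no effect and wells lacking membranes for full effect; tested at 10 µM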
# Target sequence (Q03530 whole entry, looked up): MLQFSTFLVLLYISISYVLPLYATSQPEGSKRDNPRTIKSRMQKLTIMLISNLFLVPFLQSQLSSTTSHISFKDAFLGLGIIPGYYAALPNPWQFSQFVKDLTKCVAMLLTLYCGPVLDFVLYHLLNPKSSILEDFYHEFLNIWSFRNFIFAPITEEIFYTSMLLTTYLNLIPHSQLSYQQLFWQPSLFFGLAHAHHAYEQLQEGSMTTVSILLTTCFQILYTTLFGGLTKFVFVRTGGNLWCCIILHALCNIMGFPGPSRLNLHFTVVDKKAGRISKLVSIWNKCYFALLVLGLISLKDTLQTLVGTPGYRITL
# PABP polyA inh: blocks human PABP binding to poly(A) RNA; AID 2014; actives 1% (n = 290,000); inhibition, % at 35 µM; fluorescence polarization; P11940;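 active = 50% or more with normal probe brightness, or confirmed in later tests; about a fifth of its hits are not listed in these tables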;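 note: calls also rest on retests at 20 µM and on dose response follow-up; controls were probe without protein and protein plus probe with vehicle; some compounds called inactive have numbers as strong as hits; many hits fall short of the cut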
# Target sequence (P11940 whole entry, looked up): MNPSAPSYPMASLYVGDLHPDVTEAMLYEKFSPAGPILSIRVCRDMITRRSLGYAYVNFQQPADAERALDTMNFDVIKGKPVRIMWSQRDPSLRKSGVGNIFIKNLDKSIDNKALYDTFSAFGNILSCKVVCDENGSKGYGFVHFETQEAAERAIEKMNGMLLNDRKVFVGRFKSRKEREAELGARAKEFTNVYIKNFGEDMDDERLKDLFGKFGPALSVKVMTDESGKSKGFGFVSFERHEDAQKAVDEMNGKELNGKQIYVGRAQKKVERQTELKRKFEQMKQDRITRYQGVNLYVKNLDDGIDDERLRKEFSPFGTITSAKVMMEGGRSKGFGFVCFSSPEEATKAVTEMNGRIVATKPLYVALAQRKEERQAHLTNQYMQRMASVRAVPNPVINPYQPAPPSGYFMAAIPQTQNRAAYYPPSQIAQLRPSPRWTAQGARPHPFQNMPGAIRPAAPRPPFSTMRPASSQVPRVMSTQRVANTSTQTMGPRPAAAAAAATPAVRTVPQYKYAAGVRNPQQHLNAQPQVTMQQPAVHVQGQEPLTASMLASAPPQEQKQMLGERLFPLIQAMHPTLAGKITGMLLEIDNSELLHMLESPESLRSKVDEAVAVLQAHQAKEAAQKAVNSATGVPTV
# Yeast UUG start: alters start codon recognition fidelity in yeast; S. cerevisiae UUG-firefly luciferase reporter, luminescence/redox ratio; actives 0.13% (n = 350,000); AID 602363; activity score, % at 18.7 µM;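 active = replicate mean at a twofold rise or more, about +100% in these data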;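 note: firefly luciferase made from a UUG start codon reports start codon fidelity; reporter light over untreated wells divided by growth signal over untreated wells; some hits fall short of that in this replicate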
# MT1-MMP act inh RFP: recorded beside MT1-MMP act inh, whose call it bears; RFP signal change, %; measured here: RFP expression control read;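 0 = vehicle wells; hits needed this value within 50% of zero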
# Active calls of the source: *; i = inactive; nt = no result given; & = joins results of further samples. Compounds were not picked by outcome; any-hit rate near 2.9%.
SMILES,eIF4H FP inh,MT1-MMP act inh,MT1-MMP act inh RFP,Env fusion inh,CSC inhib,Rce1 inhib,PABP polyA inh,Yeast UUG start
Nc1c2c(nc3ccn(Cc4ccccc4)c(=O)c13)CCC2,-4,6,-4,nt,1,i,6,-10
Cc1cccc2c1NC(=O)C2(O)N1CCCC(C)C1 (stereo unspecified),-17,-1,3,3,-21,i,22,-9
CCOC(=O)c1c(C)[nH]c(C)c1C(=O)COC(=O)c1ccccc1O,-11,-2,-2,nt,-18,i,-8,nt
CN(CC(=O)Nc1ccc(Cl)cc1F)C1CCS(=O)(=O)C1 (stereo unspecified),nt,5,0,-4,-22,nt,nt,9
c1csc(-c2ccc3nncn3c2)c1,nt,-4,6,-18,nt,nt,nt,-42
CCOc1cc(NC(=O)c2ccco2)c(OCC)cc1NC(=O)Cc1cccc(OC)c1,0,-1,-3,nt,6,nt,-2,-4
O=C(COC(=O)CCCc1c[nH]c2ccccc12)Nc1ccc2c(c1)OCO2,-10,-4,-2,-22,7,i,-6,-1
COC(=O)c1ccccc1NC(=O)CN(C)Cc1ccccc1,-8,-2,-3,19,-8,i,0,-19
CCOC(=O)C1CCCN(Cc2cccc(Oc3ccccc3)c2)C1 (stereo unspecified),-2,-1,-1,16,4,i,-14,-17
CCOC(=O)c1ccc(-c2ccc(C3Nc4ccccc4C(=O)N3O)o2)cc1 (stereo unspecified),-5,-1,-9,-23,-4,i,4,-15
N#Cc1ccccc1Cn1cc(/C=N/Nc2ccc([N+](=O)[O-])cn2)c2ccccc21,16,-51,-7,13,17,i,10,-1
O=C(NNC(=O)c1ccccc1-n1cccc1)c1ccc(Cl)cc1,0,6,4,nt,1,i,9,-15
CCCCNC(=O)OCCNC(=O)NC,4,2,9,15,7,i,-5,-5
COc1ccc(NS(=O)(=O)c2cccc3cccnc23)cc1OC,5,-1,-5,1,5,i,-12,nt
COc1ccc(S(=O)(=O)N(CC(=O)NC2CC2)c2ccc(C)cc2)cc1,-12,0,1,-11,-14,i,-12,-22
Cc1ccc(C)c(NC(=O)C2CCN(S(=O)(=O)c3ccc4c(c3)NC(=O)CO4)CC2)c1,-8,2,-5,1,2,i,5,-4
Nc1ccc(C(=O)N/N=C/c2sc(N3CCOCC3)nc2-c2ccccc2)cc1,-4,5,0,-56,4,i,11,-18
COc1ccc(OC)c(N/C=C/C(=C(C#N)C#N)N(C)C)c1,-8,-4,-1,0,10,i,3,16
N#CC1=C(SCC(=O)NC2CC2)NC(=O)C(C#N)C12CCCCC2 (stereo unspecified),0,6,1,0,-3,i,3,-3
O=C(Nc1ccc(OC(F)(F)F)cc1)N1CCN(c2ccnc3cc(Cl)ccc23)CC1,14,0,-28,28,64,i,-1,nt
O=C(Nc1ccc(Br)cc1F)C1CCN(c2nnc(-n3cccc3)s2)CC1,-15,-4,0,28,16,i,2,-22
CCCc1sc(N)nc1-c1ccc(C)cc1,0,-4,-1,-25,7,i,-10,-16
O=c1[nH]c(=S)[nH]cc1Oc1ccc(Cl)cc1,nt,-1,3,21,nt,nt,nt,-10
CCOc1cc(/C=N/NC(=O)CSc2nncn2C)ccc1OCc1cccc(C)c1,-5,10,3,1,-2,i,9,-15
CCOc1ccc(-c2csc(NC(=O)CSC3=NC(=O)CN3C(C)=O)n2)c2ccccc12,-3,nt,nt,-14,26,i,8,-8
COc1ccc(CCNC(=O)COC(=O)c2cc3ccccc3oc2=O)cc1OC,nt,1,-3,16,-5,nt,nt,14
CCn1c(SCc2cccc(C(=O)O)c2)nnc1-c1ccc(Cl)cc1,-6,-2,-3,3,67,i,3,-7
Cc1cc(C)c2c(CN3CCN(Cc4ccccc4)CC3)cc(=O)oc2c1C,-9,4,1,11,30,i,5,-12
COc1cc(/C=C2\SC(=O)N(CC(=O)Nc3cccc(C)c3)C2=O)cc([N+](=O)[O-])c1O,15,21,-5,-23,nt,nt,-7,nt
COC(=O)C/C=C/[C@@H](C)[C@@H](/C=N/OC[C@@H](C)[C@H](OCc1ccccc1)C(C)C)NS(=O)(=O)c1ccc(C)cc1,1,nt,nt,nt,8,i,7,nt
COc1ccc(N2CCN(C(=O)CSc3ccc(C)cc3)CC2)cc1,-9,1,-4,-24,-14,i,5,nt
CC(=O)OCCOc1nc(NC(C)C)nc(NC(C)C)n1,10,3,2,13,-5,i,6,-9
OCCOCCOc1ccccc1OCCOCCO,-7,0,2,12,-32,i,-7,nt
O=C(O)c1ccc2c(c1)C(=O)N(Cc1ccc3c(c1)OCO3)C2=O,-8,-1,4,-15,-10,i,7,-3
O=C(CC1NCCN(Cc2ccccc2)C1=O)Nc1ccccc1 (stereo unspecified),-12,-2,-2,10,-11,i,-5,-12
O=C(NNC(=O)c1cc(OCC(F)(F)F)ccc1OCC(F)(F)F)c1cccc(C(F)(F)F)c1,-8,-5,-7,nt,21,i,-3,nt
C/C(CC1(O)C(=O)N(C)c2ccccc21)=N\O (stereo unspecified),-7,2,3,nt,-8,nt,-2,-9
O=C(Nc1cccc(S(=O)(=O)NC2=NCCC2)c1)c1cnc(Cl)c(Cl)c1,nt,-4,0,2,-2,nt,nt,-2
Cc1csc2ncnc(N3CCN(C(=O)Nc4ccc(OC(F)(F)F)cc4)CC3)c12,-1,-6,-27,12,44,i,-1,nt
CCn1c(SCC(=O)Nc2cccc(NC(C)=O)c2)nnc1-c1ccco1,0,0,2,12,-36,i,-2,5
CCCc1nn2c(=O)cc(CSCC(=O)Nc3ccc(C)cc3)nc2s1,-10,4,6,3,10,i,10,-16
CCN(CC)CCn1c(NCc2nc3ccccc3n2Cc2ccccc2)nc2ccccc21,-3,0,-5,-89,6,i,0,nt
COc1ccc2nc(NC(=S)NC(=O)c3ccco3)sc2c1,4,4,7,-362,-5,i,16,nt
Cc1cc2ccccn2c1C(=O)c1cccc(F)c1,-10,1,3,4,15,i,2,-22
CSc1nnc2c3ccccc3n(CCc3ccccc3)c2n1,0,-12,-4,54,53,i,-7,-24
O=C1NC(=S)N/C1=C\c1cccc([N+](=O)[O-])c1,7,-5,-2,-34,nt,i,5,-1
O=[N+]([O-])c1cccc(S(=O)(=O)NCCc2cccs2)c1,-7,1,5,3,-8,nt,-2,nt
C[C@H]1C[C@H]2[C@@H]3CCC4=CC(=O)C=C[C@]4(C)[C@@]3(Cl)[C@@H](O)C[C@]2(C)[C@@]1(O)C(=O)CO,-15,-1,1,i,-6,i,1,5
CN(C(=O)C1CCN(S(=O)(=O)c2cccs2)CC1)c1ccccc1,4,-4,6,-14,-10,i,-8,-18
CCN(CCNC(=O)C1CCN(S(=O)(=O)c2cccc3nsnc23)CC1)c1ccccc1,-2,1,-1,-39,6,i,-9,-2
CCC(=S)/C=C1\Sc2ccccc2N1CCCS(=O)(=O)O,25,-1,5,-36,-11,i,21,-27
OCCNC(=S)NCc1ccccc1,0,6,6,-1,0,i,5,-3
CCOC(=O)CN(c1sc(C)c(C)c1C(=O)OCC)S(=O)(=O)c1ccc(C)cc1,nt,-7,-5,23,nt,nt,nt,-12
COc1ccccc1CNCC(c1ccccc1)c1ccccc1,-3,-2,3,16,-12,i,14,0
O=C(CN1CCOCC1)N1CCN(c2nnc(-c3ccccc3)c3ccccc23)CC1,-5,-1,-5,nt,9,i,1,-26
COc1ccc(-c2nc(SC(C)C(=O)Nc3ccc(NC(C)=O)cc3)n[nH]2)cc1 (stereo unspecified),nt,-8,1,-47,nt,i,nt,8
COc1ccc(OC)c(S(=O)(=O)NCc2cn3ccsc3n2)c1,3,4,8,-22,-24,i,2,nt
O=C(Nc1nccs1)C1CCN(S(=O)(=O)c2c(Cl)cccc2Cl)CC1,-1,3,-9,nt,-14,i,-10,-16
O=C(/C=C/c1cccc(F)c1)Nc1nccs1,-8,2,1,-51,-11,i,11,-7
COc1ccc(CN(C2CCCC2)S(=O)(=O)c2ccc(-n3cnnn3)cc2)cc1,2,0,-4,-2,-2,i,1,-5
# New compounds follow:
SMILES,eIF4H FP inh,MT1-MMP act inh,MT1-MMP act inh RFP,Env fusion inh,CSC inhib,Rce1 inhib,PABP polyA inh,Yeast UUG start
Cc1ccc(C)c2sc(NC(=O)CN3C(=O)CCC3=O)nc12,-6,2,3,8,-3,i,-4,-19
CC1CC(C)CN(S(=O)(=O)c2ccc(C(=O)Nc3sccc3C(N)=O)cc2)C1 (stereo unspecified),4,-1,-10,5,19,i,-6,-14
C=CCn1c(SCC(=O)N(CC)CC)nc(O)cc1=O,6,4,6,-15,3,i,5,-5
NC(=O)C[N+]1(CC#CC(O)(c2ccccc2)c2ccccc2)CCCC1,-7,1,2,6,-19,i,2,nt
Cc1cc(C)cc(NC(=O)CSc2nnc(CNC(=O)c3cccs3)o2)c1,-10,1,9,-27,-20,i,8,-2
COc1ccc(N2CCN(C(CNC(=O)C(=O)NCc3cccnc3)c3ccco3)CC2)cc1 (stereo unspecified),2,3,-7,-13,-10,i,19,nt
COc1ccc(-n2cc(CN(C)CCO)c(-c3cccc(F)c3)n2)cc1,10,-2,3,-10,-7,i,-6,10
O=C(NCCC1=CCCCC1)C1CCN(S(=O)(=O)c2cccs2)CC1,-2,-1,-2,nt,-10,i,-9,nt
N=C1C(=O)OCC1c1ccccc1NC(=O)c1ccccc1 (stereo unspecified),2,-6,3,-14,nt,i,-3,nt
COc1cc(NC(=O)Nc2ccc(C)cc2)cc([N+](=O)[O-])c1,1,2,-6,-40,-3,i,-15,nt
NC(=S)Nc1ccc(Oc2ccc(NC(N)=S)cc2)cc1,12,2,-1,nt,6,i,1,-29
Cn1cc(-c2cnc3c(NC=O)cc(-c4cccc(C(F)(F)F)c4)cn23)cn1,nt,-14,-11,-75,nt,nt,nt,-22
O=C(COc1ccccc1[N+](=O)[O-])N/N=C/C=C/c1ccco1,25,6,9,-13,-10,i,8,-13
Cc1ccc(NC(=O)N2CCCC2C(=O)Nc2ccc3c(c2)OCO3)cc1 (stereo unspecified),-1,3,-1,3,-9,i,7,6
O=C/C(=C\Nc1ccc(S(=O)(=O)CCO)cc1)c1nc2cc(Cl)ccc2o1,16,-55,0,-4,-4,i,-3,-4
C[C@@H]1CN([C@H](C)CO)S(=O)(=O)c2ccc(Br)cc2O[C@@H]1CN(C)C(=O)CN1CCOCC1,nt,1,3,-6,nt,nt,nt,-12&-30
Cc1nc(SCC(=O)NCC2CCCO2)c2oc3ccccc3c2n1 (stereo unspecified),-4,3,4,nt,4,i,8,-11
O=C(Nn1cnnc1)c1cc2cc(Br)ccc2oc1=O,-5,-5,1,20,-12,i,9,-17
Cc1ccc(N(C)S(=O)(=O)c2cccc(C(=O)NNC(=O)c3ccncc3)c2)cc1,nt,4,3,nt,-7,nt,nt,-12
Cc1ccc(NS(=O)(=O)c2cc(N)ccc2Cl)c(C)c1,-2,1,1,-9,-4,i,4,nt
CCCSc1nnc(Sc2nnnn2-c2ccccc2)s1,0,16,3,-67,53,i,3,-13
O=C(OC1CCCCC1=O)c1ccc(F)c(S(=O)(=O)N2CCOCC2)c1 (stereo unspecified),nt,0,-3,-13,-7,i,nt,-14
Fc1ccc(N2CCN(Cc3cnc(Cl)s3)CC2)cc1,6,-1,-1,2,-6,i,3,-22

# Arranged by molar mass (largest number first): 3 of the compounds above
SMILES,eIF4H FP inh,MT1-MMP act inh,MT1-MMP act inh RFP,Env fusion inh,CSC inhib,Rce1 inhib,PABP polyA inh,Yeast UUG start
C[C@@H]1CN([C@H](C)CO)S(=O)(=O)c2ccc(Br)cc2O[C@@H]1CN(C)C(=O)CN1CCOCC1,nt,1,3,-6,nt,nt,nt,-12&-30
Cc1ccc(NC(=O)N2CCCC2C(=O)Nc2ccc3c(c2)OCO3)cc1 (stereo unspecified),-1,3,-1,3,-9,i,7,6
Fc1ccc(N2CCN(Cc3cnc(Cl)s3)CC2)cc1,6,-1,-1,2,-6,i,3,-22

# Source: PubChem BioAssay
